MT1-MMP act inh = blockers of MT1-MMP proenzyme processing, primary screen, HT1080 RFP-PRO-GFP cells, GFP/RFP fluorescence; 0.061% of 360,000 active; AID 651647, 2012; GFP/RFP ratio change, % at 20 µM; GFP/RFP ratio fluorescence, overnight; percent of plate control window, DMSO zero; Matrix metalloproteinase-14 (Homo sapiens), P50281;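 active = GFP/RFP ratio change of at least 30% with cell ATP level not reduced by more than half and red fluorescence within 50% of control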; also: strong numbers were not always called active
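Material: RFP-PRO-GFP reporter HT1080 cells. Dosing: single-point 20 µM compound, 1% DMSO. Controls: DMSO and RFP-L50D-GFP cell wells. Timing: cells overnight before dosing, compound overnight, 37 °C, 5% CO2. Measure: GFP/RFP fluorescence ratio.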
CSC inhib = cancer stem cell viability inhibitors, primary screen, luminescence. cancer stem cell-like cells viability. inhibition, % at 7.5 µM. 1.1% of 300,000 active. AID 2717, 2010;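 active = mean at 75% or more and at least half the replicates too; tested in HMLE shEcad cells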;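 also: 0% = median of negative and 100% = median of positive control wells; the first replicate is given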
Yeast UUG start = modulators of yeast start codon fidelity, primary screen, whole organism, S. cerevisiae, single point, plate reader | S. cerevisiae UUG-firefly luciferase reporter, luminescence/redox ratio | activity score, % at 18.7 µM | 0.13% of 350,000 active;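 active = replicate mean at a twofold rise or more, about +100% in these data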;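 also: firefly luciferase made from a UUG start codon reports start codon fidelity; reporter light over untreated wells divided by growth signal over untreated wells; some hits fall short of that in this replicate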
eIF4H inh = human eIF4H binding inhibitors, primary screen, translation initiation inhibitor project, biochemical, uHTS, fluorescence polarization; Eukaryotic translation initiation factor 4H (Homo sapiens), Q15056; eIF4H fluorescence polarization binding assay; inhibition, % at 35 µM; 0.94% of 290,000 active;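 active = 50% or more with normal probe brightness, or confirmed in later tests; about a fifth of its hits are not listed in these tables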;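 also: calls also rest on retests at 20 µM and on dose response follow-up; 0% = protein and probe with vehicle and 100% = probe without protein; strong numbers were not always called active; many hits fall short of the cut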
Rce1 inh = yeast Rce1p protease inhibitors, primary screen, biochemical, fluorescence, cell-free homogeneous | CAAX prenyl protease 2 (Saccharomyces cerevisiae (strain ATCC 204508 / S288c)), Q03530 | yeast membranes, quenched prenylated peptide cleavage fluorescence | calls only | 0.27% of 290,000 active | AID 2563, 2010;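 active = fall in fluorescence gain of 50% or more versus controls, with final raw signal at or below 3038400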;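 also: plate controls were neutral control wells for no effect and wells lacking membranes for full effect; tested at 10 µM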
PABP polyA inh = PABP poly(A) RNA binding inhibitors, primary screen, biochemical, fluorescence polarization, uHTS | Polyadenylate-binding protein 1 (Homo sapiens), P11940 | inhibition, % at 35 µM | 1% of 290,000 active | AID 2014, 2009;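 active = 50% or more with normal probe brightness, or confirmed in later tests; about a fifth of its hits are not listed in these tables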;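 also: calls also rest on retests at 20 µM and on dose response follow-up; controls were probe without protein and protein plus probe with vehicle; some compounds called inactive have numbers as strong as hits; many hits fall short of the cut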
Target sequence (P11940 whole entry, looked up): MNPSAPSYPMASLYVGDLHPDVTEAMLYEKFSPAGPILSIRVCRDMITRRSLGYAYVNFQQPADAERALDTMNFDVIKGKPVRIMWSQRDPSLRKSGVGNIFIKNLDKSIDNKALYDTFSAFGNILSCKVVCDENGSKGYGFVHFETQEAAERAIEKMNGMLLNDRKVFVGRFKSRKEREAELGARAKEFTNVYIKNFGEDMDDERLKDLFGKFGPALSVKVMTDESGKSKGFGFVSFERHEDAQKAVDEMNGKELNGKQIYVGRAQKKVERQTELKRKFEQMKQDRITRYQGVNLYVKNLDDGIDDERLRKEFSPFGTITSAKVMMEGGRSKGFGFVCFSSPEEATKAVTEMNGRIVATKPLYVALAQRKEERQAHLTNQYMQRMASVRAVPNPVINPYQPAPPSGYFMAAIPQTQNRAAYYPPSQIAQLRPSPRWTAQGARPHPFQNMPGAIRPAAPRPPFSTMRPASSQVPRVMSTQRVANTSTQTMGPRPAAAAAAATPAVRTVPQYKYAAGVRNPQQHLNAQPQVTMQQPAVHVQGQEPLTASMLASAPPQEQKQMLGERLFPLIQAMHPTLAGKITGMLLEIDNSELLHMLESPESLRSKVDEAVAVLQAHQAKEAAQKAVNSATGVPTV
HIV Env fusion = inhibitors of HIV-1 Env-driven cell-cell fusion, primary screen, HeLa-JRFL effector, CEM21 target cells, luciferase; inhibition, % at 12.3 µM; 1.1% of 360,000 active; AID 651610, 2012;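 active = mean replicate inhibition score of at least 50 and every replicate individually at or above 50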;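 also: 0% = plate neutral controls and 100% = maraviroc near 300 nM; one replicate is shown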
eIF4H inh retest = recorded beside eIF4H inh, whose call it bears; inhibition, %; compound at 20 µM; confirmation average;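 mean of two retest wells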
PABP polyA inh retest = further read-out of PABP polyA inh, marked with its call; inhibition, %; compound at 20 µM; confirmation repeats;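 mean of two retest wells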
MT1-MMP act inh RFP = recorded beside MT1-MMP act inh, whose call it bears; RFP signal change, %; measured here: RFP expression control read;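 0 = vehicle wells; hits needed this value within 50% of zero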
* hit, by the source's call; i = inactive; / = not tested or not shown.

SMILES | MT1-MMP act inh | MT1-MMP act inh RFP | CSC inhib | Yeast UUG start | eIF4H inh | Rce1 inh | PABP polyA inh | HIV Env fusion | others
O=S(=O)(Nc1cccc2ncccc12)c1cccs1 | -25 | -27 | 5 | -37 | 12 | i | -2 | /
Cc1ccc(O)c(CNc2ccc(S(=O)(=O)Nc3nccs3)cc2)c1 | 7 | 2 | 6 | -9 | -18 | i | 0 | -5
Cc1ccsc1CN(C)C(=O)C(NC(=O)c1cccc(S(=O)(=O)N2CCOCC2)c1)C(C)C (stereo unspecified) | -9 | -9 | -13 | 24 | / | / | / | /
c1ccc(N2CCN(Cc3ccnc4ccccc34)CC2)cc1 | / | / | 12 | -9 | 16 | i | 38 | -24
O=C(NCC1CCCN(Cc2ccc3nonc3c2)C1)c1ccc(F)cc1 (stereo unspecified) | -3 | 1 | -10 | -15 | -5 | i | -1 | 4
CC1CCCN(C(=O)Cn2nnc(-c3ccccc3F)n2)C1 (stereo unspecified) | 3 | 3 | -5 | -11 | 7 | i | 2 | 1
O=C(CC(=O)Nc1ccc(Cl)c(Cl)c1)N/N=C/c1ccc(O)cc1 | 2 | 1 | 8 | -7 | -7 | i | 51* | -10 | eIF4H inh retest=50;PABP polyA inh retest=60*
CCc1ccc(NC2=CC(=O)CC(C)(C)C2)cc1 | 3 | -3 | 6 | -8 | -9 | i | -14 | 3
Cc1ccc(SCCC(=O)Nc2ccccc2C(=O)N2CCOCC2)cc1 | 1 | 5 | -9 | -9 | 1 | i | 2 | /
O=C(NCCN1CCOCC1)c1ccc2ccccc2n1 | 3 | 0 | -2 | / | -5 | i | -14 | /
CNC(=O)C1CC(=O)N(Cc2ccc3c(c2)OCO3)C(=Nc2ccc(OC)cc2)S1 (stereo unspecified) | 3 | 2 | 24 | -1 | 5 | i | 5 | /
O=C(NCc1cccs1)c1cccc(N2CCCC2=O)c1 | -7 | -2 | 3 | -48 | -4 | i | -4 | -10
CCC(C)CNC(=O)c1[nH]c(C(F)(F)F)nc1-c1ccccc1 (stereo unspecified) | 2 | -2 | / | -18 | / | / | / | 2
O=C(c1ccc2ncsc2c1)N1CCCCC1 | -3 | -1 | 1 | -15 | 0 | i | -1 | -2
COc1ccc(NC(=O)CC2C(=O)NCCN2C(=O)c2ccc(Cl)cc2)cc1 (stereo unspecified) | -6 | -4 | -3 | -13 | 0 | i | -8 | -1
Clc1ccc(C2=CSC3=Nc4cccc5cccc(c45)N23)cc1 | 0 | 3 | 9 | -8 | 103 | i | 12 | i | eIF4H inh retest=36;PABP polyA inh retest=10
CN(C)c1ccc(CNC23CN4CN(CN(C4)C2)C3)cc1 | 11 | 5 | -11 | 5 | -1 | i | -6 | -324
N=C(N)SCc1nc2ccccc2c(=O)n1-c1ccccc1Cl | -3 | 1 | 93* | -1 | -2 | i | -1 | -45
O=C(NCCCO)C(=O)NCc1ccccn1 | -1 | 1 | -9 | -19 | 3 | i | -6 | 4
O=C(NCCc1ccc(C(F)(F)F)cc1)C1COc2ccccc2O1 (stereo unspecified) | 3 | 3 | -5 | -14 | -4 | i | 1 | 21
Cc1cc2nc3n(c2cc1C)CC1CC(C(=O)NCc2cccc(C(F)(F)F)c2)N(C)C31 (stereo unspecified) | 0 | 0 | -5 | -17 | 4 | i | -3 | -13
Cc1ccc(N2CC(C(=O)NNC(=O)c3ccc(F)cc3)CC2=O)cc1 (stereo unspecified) | -6 | -1 | -9 | -7 | / | / | / | /
COc1ccc(-c2nnnn2C(C)C)cc1S(=O)(=O)Nc1ccccc1 | -3 | -2 | 9 | -8 | 1 | i | -8 | 5
O=Nc1c(-c2ccccc2)n(O)[n+]([O-])c1-c1ccccc1 | 0 | -1 | / | -11 | / | / | / | 5
COc1ccc(OC)c(N(CC(=O)NCCSc2ccccc2)S(C)(=O)=O)c1 | 2 | 1 | -7 | -8 | 1 | i | 9 | -28
Cc1cc(=O)c2n(Cc3ccc(Cl)cc3)nc[n+]2[nH]1 | 2 | -2 | -8 | -15 | 2 | / | -12 | -54
Cc1cc(Cl)ccc1NC(=S)N1CCC(C(N)=O)(N2CCCCC2)CC1 | 1 | 1 | / | / | -10 | i | -6 | /
COC(=O)c1ccccc1NC(=S)NC(=O)COc1ccccc1 | 3 | 11 | / | / | 1 | i | -1 | /
O=C(Nc1cccc(S(=O)(=O)Nc2ccc(Cl)cc2)c1)c1ccc2c(c1)OCCO2 | 14 | -23 | 33 | / | 1 | i | 16 | 35
O=C(NCc1nnc(SCC(=O)N2CCCC2)o1)c1cccc(C(F)(F)F)c1 | -1 | -1 | -6 | -7 | 3 | i | 4 | 6
Nc1nnc(CC(=O)N/N=C\c2cc([N+](=O)[O-])ccc2O)s1 | 5 | 8 | -4 | / | 23 | i | -4 | -7
O=C(CSc1nc2ncccc2[nH]1)c1ccc2c(c1)OCO2 | 3 | -1 | -10 | 2 | -8 | i | 5 | -10
CN(C)c1c(-c2ccccc2)cc(-c2ccccc2)[nH]c1=O | -9 | -4 | / | -12 | -4 | i | 6 | -16
CC(C(=O)N/N=C/c1ccc(N(C)C)c(Br)c1)N(c1ccccc1)S(C)(=O)=O (stereo unspecified) | -3 | -8 | -5 | -3 | -8 | / | -5 | /
O=[N+]([O-])c1ccc(Sc2ncc3ccccn23)nc1 | 2 | 2 | -5 | / | 2 | i | 2 | -15
Cc1ccc(C)c(N2C(=O)CC(N3CCN(Cc4ccc5c(c4)OCO5)CC3)C2=O)c1 (stereo unspecified) | 7 | -1 | -4 | -11 | -7 | i | 6 | /
CCOc1ccc(-n2c(SCC(=O)c3c(N)n(C)c(=O)n(C)c3=O)nnc2-c2cccnc2)cc1 | -7 | 3 | -12 | / | 4 | i | -13 | /
Cc1ccc(S(=O)(=O)N/N=C2/CC(c3ccccc3)Oc3ccccc32)cc1 (stereo unspecified) | -3 | -8 | 18 | -18 | 0 | i | 1 | -33
COc1ccccc1-c1nn(-c2ccccc2)cc1C(=O)NCC(c1ccco1)N1CCCC1 (stereo unspecified) | 4 | 5 | / | 1 | / | / | / | 5
CC(C)(C)N1CSC(=S)N(Cc2ccccc2)C1 | 1 | 1 | 11 | -13 | -4 | i | 60 | -4 | eIF4H inh retest=-4;PABP polyA inh retest=0
O=[N+]([O-])c1ccc(/C=N/N=C/c2ccc([N+](=O)[O-])o2)o1 | -36 | -34 | / | / | 12 | / | -6 | -307
Cc1cc(C(=O)Nc2cccc3ccccc23)co1 | 2 | 6 | 13 | -8 | -13 | i | 11 | -18
CN(C)c1ccc(-c2ccnc3c2CC(C)(C(=O)NCc2ccc(F)c(F)c2)O3)cc1 (stereo unspecified) | -2 | -6 | / | -6 | / | / | / | 3
CC(C)(C)CNC(=O)C1(C)CCN1C(=O)Cc1ccc(-c2ccccc2)cc1 (stereo unspecified) | -1 | -18 | / | 11 | / | / | / | 18
O=c1cc(O)c(-c2ccccc2Cl)c(Cl)[nH]1 | -4 | 5 | / | -1 | 6 | i | 24 | -33
Nc1cccc2cnccc12 | 9 | 3 | 14 | -13 | 88* | / | 52 | 26 | eIF4H inh retest=79*;PABP polyA inh retest=35
O=C(CCCN1C(=O)c2ccccc2C1=O)Nc1nc2ccccc2[nH]1 | -4 | 0 | -6 | -21 | -12 | i | 1 | 12
CCCCOC(=O)c1ccc(NC(=O)C(=O)NCCN(C)C)cc1 | 6 | 2 | 21 | 0 | -5 | i | -2 | 2
N#Cc1ccc(/C=C/C(=O)c2ccc3c(c2)OCO3)cc1 | 1 | 1 | 1 | / | -8 | i | -21 | -36
CCCCNC(=O)C1CCCNC1=O (stereo unspecified) | / | / | -31 | -12 | -3 | i | -3 | /
COC(=O)C(O)(CC(=O)Nc1ccc(C)c(F)c1)C(F)(F)F (stereo unspecified) | -1 | 0 | -12 | -10 | -1 | i | 3 | -21
CC(Cc1cccs1)NC(=O)CCCn1nnnc1CN1CCOCC1 (stereo unspecified) | -2 | 0 | -12 | -2 | 4 | / | -1 | 3
CCCCCC/C(C)=C1/SC(=S)NC1=O | -49 | 17 | / | -24 | -3 | i | -2 | /
CC(=O)Nc1ccc(/C=N/Nc2nc3ccccc3[nH]2)cc1 | -4 | -10 | 7 | / | -18 | / | -10 | 4
Clc1ccccc1OCCn1nnc2ccccc21 | 5 | -4 | -4 | -13 | 0 | i | 1 | -58
CC(=O)Oc1ccc(C23c4ccccc4C2(OC(C)=O)c2cc(OC(C)=O)ccc23)cc1 (stereo unspecified) | 0 | -2 | / | 4 | / | / | / | -74
O=C(NC1CCCCC1)C(=S)N1CCCC1 | 2 | 5 | -3 | 1 | -2 | i | -14 | -13
Cc1ccc(C2CC(=O)C(C=NCCN3CCN(CC(=O)Nc4cc(C)cc(C)c4)CC3)=C(O)C2)cc1 (stereo unspecified) | -2 | 3 | / | 1 | 4 | i | 8 | 7
O=C1NC(Cc2ccc(O)cc2)c2nc3cc(F)c(F)cc3c(=O)n2-c2ncccc21 (stereo unspecified) | -11 | -3 | / | -10 | / | / | / | 26
CC(C)(C)c1ccc(C2=NC(=O)C(CC(=O)O)S2)cc1 (stereo unspecified) | -5 | 0 | -10 | / | 2 | i | 5 | -2

By substructure: the entries above containing a nitro group on carbon (3)
SMILES | MT1-MMP act inh | MT1-MMP act inh RFP | CSC inhib | Yeast UUG start | eIF4H inh | Rce1 inh | PABP polyA inh | HIV Env fusion | others
Nc1nnc(CC(=O)N/N=C\c2cc([N+](=O)[O-])ccc2O)s1 | 5 | 8 | -4 | / | 23 | i | -4 | -7
O=[N+]([O-])c1ccc(Sc2ncc3ccccn23)nc1 | 2 | 2 | -5 | / | 2 | i | 2 | -15
O=[N+]([O-])c1ccc(/C=N/N=C/c2ccc([N+](=O)[O-])o2)o1 | -36 | -34 | / | / | 12 | / | -6 | -307

Next section
SMILES | MT1-MMP act inh | MT1-MMP act inh RFP | CSC inhib | Yeast UUG start | eIF4H inh | Rce1 inh | PABP polyA inh | HIV Env fusion | others
O=C(NCCN1CCOCC1)c1cccc(Br)c1 | 4 | 2 | / | 8 | / | i | / | 5
Cc1ccc(C)c(N2CCN(C(=O)c3ccc(Cn4c(=O)[nH]c5ccccc5c4=O)cc3)CC2)c1 | -9 | -7 | 18 | -3 | -14 | i | -2 | 6
C=CCOc1ccccc1/C=c1\sc2nc(-c3oc4ccccc4c3C)nn2c1=O | / | / | 0 | / | / | i | / | -42
CCOc1cccc(N(C(=O)CNC(=O)c2ccco2)C(C(=O)NCC2CCCO2)c2ccccc2)c1 (stereo unspecified) | 0 | 1 | -20 | -5 | -3 | i | -1 | -2
Cc1cc(C)c2c(n1)nn1c(C)c(CCC(=O)NCc3ccco3)c(C)nc21 | 4 | 3 | -10 | -11 | 16 | i | -11 | -20
Cc1cc(C)cc(NC(=O)COC(=O)CCCC2=NS(=O)(=O)c3ccccc3N2)c1 | 6 | 4 | -1 | / | -2 | i | -12 | -6
COc1ccc(Oc2nccc(-c3ccccc3)c2C#N)cc1 | -1 | -5 | -2 | 16 | -1 | i | -23 | /
O=C(Nc1ccnn1C1CCN(CCCc2ccccc2)CC1)c1cccc(F)c1 | 1 | -2 | -3 | -21 | -12 | i | 10 | 11
CC(=O)OCCc1[nH]c2ccccc2c1C | -1 | 2 | -4 | -5 | -1 | i | 2 | -6
c1ccc(-c2cc3c(N4CCOCC4)ncnc3s2)cc1 | -7 | -14 | 15 | / | 8 | i | 3 | /

From PubChem BioAssay
